CDC25B-CDK2 inh: human CDC25B-CDK2/CyclinA binding inhibition. hit rate 0.72% among 94,000. z-score (test concentration not listed). AID 1259370. HTRF CDC25B-CDK2/CyclinA binding, anti-His/anti-Flag; stronger effect = higher value. P30305+P24941;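 further: score is relative to mean and SD of negative controls; strong numbers were not always called active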
HIV TAR-Tat: HIV-1 TAR-Tat binding disruption; HIV-1 TAR RNA, Tat peptide displacement FRET; stronger effect = higher value; z-score (concentration not given with the values); hit rate 0.6% among 100,000;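 further: score is relative to mean and SD of negative controls; some compounds called inactive have numbers as strong as hits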
* hit, by the source's call; / = no result given; & = joins results of further samples.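 How the source made its calls: active means z-score from 3 up in half or more of its runs; inactive means the rest.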

canonical_smiles | CDC25B-CDK2 inh | HIV TAR-Tat
CC1CC(C)CN(c2ncc3c(n2)CC(c2ccccc2Cl)CC3=O)C1 (centres undefined) | -0.7 | 1.4
Cc1ccn2cc(-c3ccc(C)c(NS(C)(=O)=O)c3)nc2c1 | -0.57 | 1.9
O=C(CSc1ccc(-c2ccccn2)nn1)NCc1ccc2c(c1)OCO2 | / | 0.22
CN(C)CCNC(=O)Cn1ncc2c([nH]c3ccccc32)c1=O | / | 0.01
Cn1c(=O)c2c(SCC(=O)Nc3ccccc3F)nc(-c3cccs3)nc2n(C)c1=O | -2 | /
O=C(CSc1nc2c(cnn2-c2ccc(Cl)cc2)c(=O)[nH]1)Nc1ccccc1F | / | 1.8
CCOc1ccc(S(=O)(=O)n2nc(C)c(S(=O)(=O)N(CC)CC)c2C)cc1 | / | 0.62
CN(C)c1nc2n(c(=O)n1)CCO2 | -1.6 | /
CCCCCn1c(=O)[nH]c2cc(OCC)c(OCC)cc2c1=O | / | 1.7
CCOC(=O)c1c(S(=O)(=O)N2CCCc3ccccc32)c(C)n(C)c1C | / | 0.77
COc1ccc(S(=O)(=O)NC(C)(C)C)cc1-c1nnc2c3ccccc3c(C)nn12 | -1.6 | 1.4
O=[N+]([O-])c1ccc(N2CCN(CCO)CC2)c2ncccc12 | -1.4 | /
CCOC(=O)CC1CSc2nc3sc(C)c(C)c3c(=O)n21 (centres undefined) | 0.29 | /
CCOc1ccc2ncc(S(=O)(=O)c3ccccc3)c(N3CCCCC3)c2c1 | -0.61 | -0.35
CN(C(=O)c1cc2c(s1)-c1ccccc1OC2)c1ccccc1F | 1.3 | 2
COC(=O)c1sc(C(F)(F)F)c(-c2ccccc2)c1S(=O)(=O)N1CCOCC1 | -0.53 | /
Cc1cc2nc(COc3ccccc3C)cc(=O)n2o1 | -0.63 | 0.76
Cc1noc(/C=C/c2ccco2)c1S(=O)(=O)N1CCC(C(=O)N2CCC(C)CC2)CC1 | / | -6.5
COc1ccc(NC(=O)Nc2nnc(N(C)C3CCCCC3)s2)cc1 | -2.4 | 1.6
O=C(NCc1cccn1Cc1ccc(F)cc1)Nc1ccc(F)c(Cl)c1 | 1.4 | -0.1
N#CCc1cc2ccc3cccc4ccc(c1)c2c34 | 1.1 | /
NC(=O)CN1C(=O)CCSc2ccccc21 | -1.7 | /
O=C(O)CN1CCN(Cc2ccccn2)C(=O)C1=O | / | 0.21
Nn1nc2cc3nnnc3cc2[nH]1 | -5 | /
CC1CCN(C(=O)CCc2nc(CN3CCN(C(=O)C(C)C)CC3)no2)CC1 | / | 0.07
CCOC(=O)N1CCN(c2nc3ccccc3n3cnnc23)CC1 | -0.28 | 0.95
Cc1noc2ncnc(N3CCN(c4cccc(Cl)c4)CC3)c12 | / | -0.02
CC(C)NC(=O)c1c2c(nc3ccccc13)C(=O)N(C1CCCCC1)C2 | / | 1
CC1(C)CC(=O)c2c(cc(OS(=O)(=O)c3ccccc3)cc2OS(=O)(=O)c2ccccc2)O1 | -1.8 | /
CCN1c2ccccc2C(=O)CS1(=O)=O | -3.5 | -0.43
O=C(O)C(Cc1ccc(O)cc1)N1CCS(=O)(=O)CC1 (centres undefined) | -1.1 | /
O=C(CCn1c(=O)oc2ccccc21)Nc1nccs1 | -0.61 | /
CCCCn1cc(S(=O)(=O)c2cc(C)cc(C)c2)c(=O)c2cc(F)c(N3CCN(C)CC3)cc21 | / | 1.9
O=S(=O)(c1ccccc1)c1cnc2ccccc2c1N1CCOCC1 | -1.3 | -2.3
Cc1nnc(N2CCN(C(=O)NC3CCCC3)CC2)c2nn(-c3ccc(Cl)cc3)c(C)c12 | / | -0.13
COC(=O)c1sc2nc(N3CCCCC3)c3c(c2c1N)CC(C)(C)OC3 | -1.7 | /
Cc1ccc(/C=c2\sc3nc(=O)c(C)nn3c2=O)o1 | -0.67 | /
CC(=O)NCCNC(=O)CCc1nc2sc3c(c2c(=O)[nH]1)CCC(C)C3 (centres undefined) | / | -1
CN(C)c1ccc(NC(=O)CSc2nc3ccccc3c(=O)n2C2CCCC2)cc1 | / | 0.62
COc1nc(N)nc(OC)n1 | -1.3 | /
O=C(NCCN1CCCC1)Nc1ccccc1Cl | -0.07 | 1.3
Cc1cccc(CSc2nc(-c3cccs3)nc3c2c(=O)n(C)c(=O)n3C)c1 | -1.6 | /
CCOc1cc(CN2CCN(CC3CC4C=CC3C4)CC2)ccc1OC (centres undefined) | -0.19 | 3.1
COc1ccc(-c2nn3c(-c4ccccc4OC)nnc3s2)cc1 | -0.25 | -0.41
CSc1ccc(C(F)(F)F)cc1NC=C(C#N)C#N | -2.6 | /
Cc1nc2sccn2c(=O)c1S(=O)(=O)NCCc1ccc(Cl)cc1 | / | 2.7
O=C1C(=O)N(CCCN2CCOCC2)C(c2ccccc2)/C1=C(\O)c1ccc(Br)cc1 (centres undefined) | 0.16 | 0.41
COc1ccc(C2C3=C(Nc4ncnn42)c2ccccc2OC3c2ccccc2Cl)cc1OC (centres undefined) | -1.4 | /
Cc1c(C(=O)N2CCOCC2)c(S(=O)(=O)N2CCc3ccccc32)c(C)n1C | / | -0.56
N#Cc1ccc(OCc2ccc(Cl)cc2)cc1 | -2.2 | /

Full records, looked up by structure. Order of values: CDC25B-CDK2 inh, HIV TAR-Tat
Profile of `Cc1nc2sccn2c(=O)c1S(=O)(=O)NCCc1ccc(Cl)cc1` = /, 2.7
Profile of `CCOC(=O)N1CCN(c2nc3ccccc3n3cnnc23)CC1` = -0.28, 0.95

Other entries
canonical_smiles | CDC25B-CDK2 inh | HIV TAR-Tat
O=C(NCCc1ccccc1)N1CCCC1c1ccco1 (centres undefined) | -1.9 | -0.61
O=c1c(=NO)c(=O)c2ccccc12 | -2.3 | /
CCOc1ccc(N(C)S(=O)(=O)c2ccc(-c3coc(C)n3)cc2)cc1 | / | 0.82
O=C(Nc1ccccc1Cl)C1CC2CSCN2C12C(=O)Nc1ccccc12 (centres undefined) | / | -0.57
O=c1c2cc3c(cc2n(Cc2ccccc2)c(=O)n1Cc1nc(-c2ccccc2)no1)OCO3 | / | -0.53
COCCNC(=O)CCCCCn1c(=O)[nH]c2ccsc2c1=O | -1.2 | 2
Cc1cc(Cl)ccc1NS(=O)(=O)c1cn(C)c(C)n1 | / | 2.6
CCN(CC)CCNC(=O)C(=O)c1c[nH]c2ccccc12 | -2.4 | /
COCCCNc1nc(N)c([N+](=O)[O-])c(Nc2ccccc2)n1 | / | 1.2
O=C(Nc1ccc(F)cc1)C1CC(=O)N(Cc2ccco2)C1 (centres undefined) | -1.3 | /
COc1ccc(-c2cc3ncc(C(=O)c4cc(Br)ccc4O)cn3n2)cc1 | -0.3 | -1.6
CCOc1ccc(S(=O)(=O)n2ccnc2)cc1C(C)C | -1.1 | -1
Cc1nn(C)c2c1c(C(F)(F)F)cc(=O)n2Cc1ccc2nonc2c1 | / | -0.13
CC(CCc1ccccc1)NC(=O)c1cnc2sc3c(n2c1=O)CCCC3 (centres undefined) | / | 1.3
O=C1Cc2cc(S(=O)(=O)Nc3ccc(Cl)cc3)ccc2N1 | -0.42 | -0.71
O=C(Nc1ccc(F)cc1)Nc1nnc(-c2ccccc2I)s1 | -5.5 | /
O=C1CN(Cc2ccccc2)S(=O)(=O)c2ccccc21 | -0.77 | -0.03
Cc1c(C)n(CC(O)CNc2ccc(Br)cc2)c2ccccc12 (centres undefined) | -2.2 | /
CC1CCCCN1S(=O)(=O)c1ccc2c(c1)NC(=O)CCS2 (centres undefined) | / | 1.7
O=C(c1ccccc1Cl)N1CCN(c2ccc3nncn3n2)CC1 | -0.53 | 0.82
Cc1ccc(OCC(O)Cn2c[n+](C)c3cc(C)c(C)cc32)cc1 (centres undefined) | -1.8 | 0.85
CCC(C)(C)NS(=O)(=O)c1c(C(=O)N2CCCC2)c(C)n(C)c1C | / | 0.71
Cc1cc(C)cc(Oc2coc3c(CN4CCN(C)CC4)c(O)ccc3c2=O)c1 | -3.1 | -0.89
NC(=O)C1(N2CCCCC2)CCN(C(=O)c2cc3c(=O)oc4ccccc4c3s2)CC1 | -0.39 | /
O=C(Oc1cccc2ccccc12)c1ccccc1 | 0.87 | 0.89
O=C(CSc1nc2c(oc3ccccc32)c(=O)n1Cc1ccco1)Nc1ccc(F)cc1 | -3.1 | -0.27
Cc1ccc(-n2cc(-c3ccccc3)c3c(=O)[nH]cnc32)cc1Cl | 0.04 | -0.69
CS(=O)(=O)c1nc(S(=O)(=O)c2ccc(Cl)cc2)c(NCCCn2ccnc2)s1 | -0.05 | 1.3
CC(CC(=O)Nc1ccccc1)S(=O)(=O)c1ccc(Cl)cc1 (centres undefined) | -1.8 | /
CC1=C(C(=O)Nc2ccccn2)C(c2ccccc2)C2=C(CC(C)(C)CC2=O)N1 (centres undefined) | -1.1 | /
O=C(Cn1ncn2c(cc3sccc32)c1=O)NCCc1ccc(Cl)cc1 | -0.2 | 0.47
O=C(NC1CC1)c1cc2c(s1)-c1ccc(Cl)cc1S(=O)(=O)C2 | -1.5 | 0.75
Cc1cccc(OCCSc2nc(-c3ccc4c(c3)OCO4)nc3cc(=O)[nH]n23)c1 | / | 2.5
CN(CCNC(=O)Cn1ncc2c([nH]c3ccccc32)c1=O)Cc1ccccc1 | / | 0.99
CCOC(=O)c1c(C)[nH]c(C)c1S(=O)(=O)N(C)CC(=O)N1CCn2c1nc1ccccc12 | / | 1.4
CC1=C(c2cccc(Br)c2)S(=O)(=O)NC1=NCc1ccc(F)cc1 | -7.4 | -0.85
Cn1cc(NC(=O)NCCCN2CCCCC2)c2ccccc2c1=O | -0.17 | -0.04
Cc1nnc(SCC(=O)Nc2ccc(C(C)C)cc2)c2cc3occc3n12 | / | 0.78
Cn1cc(S(=O)(=O)N2CCOCC2)cc1C(=O)Nc1ccc(Br)cc1F | / | 0.4
Cc1onc(C(=O)NCc2ccco2)c1[N+](=O)[O-] | -0.69 | 1.1
Cc1ccc(-c2c3c(=O)n(C)c(=O)n(C)c3c3cccnn23)cc1 | 0.27 | 0.24
CSCC[C@@H](C(=O)Nc1cccc(F)c1)N1Cc2ccccc2C1=O | -1.2 | -0.95
Nc1ncnc2c1nc(SCC(=O)O)n2Cc1ccccc1 | -1 | 0.31
CCC(=O)Nc1nnc(SCc2cc(=O)n3nc(CC(C)C)sc3n2)s1 | / | 1.6
CC(C)CNC(=O)NCCn1cnc2cc(C(=O)N3CCCC3)ccc21 | / | 0.37
Clc1ccccc1-c1nnc(-c2ccccc2CNc2ccccc2)o1 | 0.04 | 0.87
CC1=C(/C=C/C(C)=C/C=C/C(C)=C/C=C/C=C(C)/C=C/C=C(C)/C=C/[C@@]23O[C@]2(C)C[C@@H](O)CC3(C)C)C(C)(C)C[C@H](O)C1 | / | 0.61
CCOC(=O)C1CCCCN1C(=O)c1cc(S(=O)(=O)N2CCOCC2)cn1C (centres undefined) | / | 0.33
C=C(C)c1cccc(C(C)(C)NC(=O)CC(C)=O)c1 | -2.7 | /
Cc1nc(N2CCOCC2)cc(N2CCN(S(=O)(=O)c3cc(C(C)C)ccc3C)CC2)n1 | -0.96 | -0.32

Copied from the list:
CC1=C(c2cccc(Br)c2)S(=O)(=O)NC1=NCc1ccc(F)cc1 | CDC25B-CDK2 inh = -7.4
C=C(C)c1cccc(C(C)(C)NC(=O)CC(C)=O)c1 | CDC25B-CDK2 inh = -2.7

5 compounds drawn at random from those above, as already listed:
canonical_smiles | CDC25B-CDK2 inh | HIV TAR-Tat
COCCNC(=O)CCCCCn1c(=O)[nH]c2ccsc2c1=O | -1.2 | 2
CC1CCCCN1S(=O)(=O)c1ccc2c(c1)NC(=O)CCS2 (centres undefined) | / | 1.7
CCCCCn1c(=O)[nH]c2cc(OCC)c(OCC)cc2c1=O | / | 1.7
COc1ccc(-c2nn3c(-c4ccccc4OC)nnc3s2)cc1 | -0.25 | -0.41
CCOc1ccc2ncc(S(=O)(=O)c3ccccc3)c(N3CCCCC3)c2c1 | -0.61 | -0.35

Following part
canonical_smiles | CDC25B-CDK2 inh | HIV TAR-Tat
COc1ccc(CN2C(=O)CSC2c2ccc3cccc(O)c3n2)cc1 (centres undefined) | -2.4 | 1.3
Cn1c(=O)c2[nH]cnc2n(C)c1=O | 0.19&-2.8 | 2.4
CCc1cc2c(=O)c(-c3nc4ccccc4n3C)coc2cc1O | -2.4 | 0.69
COc1ccc(-n2nnc3c(sc4nc(C)c(C)cc43)c2=O)cc1 | -1.3 | 1
Cc1cc(Nc2ccc(C)c(Cl)c2)n2nnnc2n1 | -1.8 | 1.2
Cc1ccccc1Cn1c(-c2nonc2N)nc2ccccc21 | -0.48 | 0.18
O=C(Nc1ccc(Br)cc1F)c1nccnc1CO | -0.35 | 1.4
COCCCNC(=O)Nc1ccc2nc(NS(C)(=O)=O)sc2c1 | / | 0.81
O=C(Cn1c(=O)c2ccccc2n2nncc12)Nc1ccc2c(c1)OCO2 | / | -0.46
c1ccc(C2NCCN=C2NC2CCCCC2)cc1 (centres undefined) | / | -0.95
CS(=O)(=O)c1ccc(-c2cccc(NS(=O)(=O)c3cccc(F)c3)c2)nn1 | / | 0.07
COC(=O)C(C)NC(=O)NCc1c(-n2cccc2)sc2c1CCN(C)C2 (centres undefined) | 1.8 | -2.4
O=C(CCn1c(=O)oc2ccccc21)NCc1ccco1 | 0.45 | /
CN(CC(=O)NC1CCCCC1)S(=O)(=O)c1cccc2cccnc12 | -0.22 | /
CC(C)(CC(=O)NCc1cccs1)CC1=NS(=O)(=O)c2ccccc2N1 | / | 0.25
O=C1CC(=O)Nc2cc(S(=O)(=O)Nc3ccccc3F)ccc2N1 | -1.7 | -0.04
CCSc1nc(C)c(Cl)c(C)c1C#N | -1.8 | /
Clc1nc(N2CCOCC2)c2c(ncn2Cc2ccccc2)n1 | -1.4 | /
COC(=O)c1cc(=O)c2cc(F)ccc2[nH]1 | -2.2 | -0.29
COC(=O)c1cc2ccsc2n1CC(=O)Nc1ccc(Br)cc1F | -0.26 | 0.4
O=C(Nc1cccc2c1CCCC2)C1CCn2c(nc3ccccc32)C1 (centres undefined) | / | 1.1
CC1CCC(NC(=O)C2(C)Cn3c(cc4occc43)C(=O)N2CCN2CCOCC2)CC1 (centres undefined) | / | 2.2
CCCN(CCC)c1nc(C(=O)OCC)nc2ccccc12 | / | 1.4
